# Compound activity deposited in PubChem by several laboratories.
# AID2073 – inhibitors of Mint1-CaV2.2 protein interaction, biochemical, HTRF (AID 2073); Voltage-dependent N-type calcium channel subunit alpha-1B (Homo sapiens); HTRF protein-protein interaction, Mint1-CaV2.2; higher % means a stronger effect; one-dose inhibition, % at 20 µM; IC50 in µM for titrated hits; 0.19% of 290,000 active; in the data active = inhibition mostly above about 51%, no sharp cut-off; also: some results filed as inactive read as strong as hits
# GPR55 antagonists – GPR55 antagonists blocking LPI-driven arrestin recruitment, primary screen, imaging, U2OS, beta-arrestin-GFP, LPI agonist (AID 2013) | 0.13% of 290,000 active | U2OS GPR55 beta-arrestin-GFP translocation imaging, LPI antagonism; higher % means a stronger effect | inhibition, % at 10 µM; hits with a dose series show IC50 in µM | G-protein coupled receptor 55 (Homo sapiens);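 active = spots per cell inhibited over 60%, with over 100 cells counted and total cytoplasm intensity under 500,000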;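 also: U2OS cells stably carrying GPR55 and arrestin-GFP stimulated by 5 µM LPI near EC80; imaged beta-arrestin-GFP aggregate spots per cell after agonist stimulation; plate controls were LPI-stimulated DMSO wells for no effect and DMSO wells without LPI for full effect; some results filed as inactive read as strong as hits; confirmed hits need IC50 under 10 µM and bright autofluorescent wells are also inconclusive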
# GPR55 beta-arrestin – GPR55 agonists via beta-arrestin recruitment, primary screen, imaging, U2OS cells, beta-arrestin-GFP redistribution (AID 1961). G-protein coupled receptor 55 (Homo sapiens). U2OS GPR55 beta-arrestin-GFP redistribution imaging; higher % means a stronger effect. one-dose activation, % at 10 µM; EC50 in µM for titrated hits. 0.048% of 290,000 active;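 active = activation above 40% with more than 50 cells counted in the well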;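 also: U2OS osteosarcoma cells stably expressing GPR55 and beta-arrestin-GFP; plate controls were DMSO negative control for no effect and LPI positive control for full effect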
# Rac1 GTP hydrolysis – MgcRacGAP GTPase-activating activity inhibitors, confirmation, biochemical, ADP Hunter fluorescence; Rac GTPase-activating protein 1 (Homo sapiens); MgcRacGAP-stimulated Rac1 GTP hydrolysis, ADP Hunter fluorescence; higher % means a stronger effect; GST-tagged Rac1 F28L mutant substrate; inhibition, % at 30 µM, or IC50 in µM where a hit was titrated; 0.6% of 340,000 active; AID 624330, 2012;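 active = first-screen hits whose inhibition reached a set limit at any dose in the follow-up dose series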;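 also: fluorescence reports GDP produced by GAP-driven GTP hydrolysis; strong numbers were not always called active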
# GPR35 antagonists – GPR35 antagonists blocking zaprinast-driven arrestin recruitment, primary screen, imaging, U2OS, beta-arrestin-GFP, zaprinast agonist (AID 2058); U2OS GPR35 beta-arrestin-GFP translocation imaging, zaprinast antagonism; higher % means a stronger effect; 0.052% of 290,000 active; G-protein coupled receptor 35 (Homo sapiens); inhibition, % at 10 µM; hits with a dose series show IC50 in µM;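 active = inhibition of at least 50% with at least 30 cells and total cytoplasm GFP at most 10,000,000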
# Active calls of the source: *; / = no result given; & = joins results of further samples. These rows are one share of the data. The share of hits here may be higher or lower than overall.
canonical_smiles | AID2073 | GPR55 antagonists | GPR55 beta-arrestin | Rac1 GTP hydrolysis | GPR35 antagonists
CNCC[C@@H](Oc1ccc(C(F)(F)F)cc1)c1ccccc1 | / | / | / | 4% | /
CC(=O)c1cn(S(=O)(=O)c2ccccc2)c2ccccc12 | 3% | 10% | -0.2% | 8% | 19%
CC(C)n1c(/C=C/[C@@H](O)C[C@@H](O)CC(=O)O)c(-c2ccc(F)cc2)c2ccccc21 | 3% | 1% | 0.3% | 4% | 2%
Nc1c(Br)cc(Br)cc1CNC1CCC(O)CC1 (stereo unspecified) | 0% | -8% | -0.1% | 1%&2% | -3%
C[C@H]1O[C@H]1P(=O)(O)O | 1% | 4%&3% | -0.1%&-0.2% | 2% | 1%&0%
CC(=O)CC(c1ccccc1)c1c(O)c2ccccc2oc1=O (stereo unspecified) | 4%&9% | 5%&4% | 0.3%&-0.1% | 4%&-2%&4% | 9%&3%
OCCN1CCN(CCCN2c3ccccc3Sc3ccc(C(F)(F)F)cc32)CC1 | 8% | 10% | -0.2% | 4% | -5%
Cc1ccc(O)c([C@H](CCN(C(C)C)C(C)C)c2ccccc2)c1 | 6% | 10% | -0.1% | 2%&7% | 9%
O=C(NCCCN=C1NS(=O)(=O)c2ccccc21)c1ccc(F)cc1 | 17% | 15% | -0.1% | 6% | -4%
COc1cc(/C=C2/S/C(=N/S(=O)(=O)c3ccccc3)NC2=O)c([N+](=O)[O-])cc1OC | 17% | -15% | -0.1% | 15% | -4%
CN1CCN(CCCN2c3ccccc3Sc3ccc(Cl)cc32)CC1 | -16%&-20% | 12%&-7% | -0.1%&-0.1% | 80µM* | 13%&-8%
O=C1NN(c2ccccc2)C(=O)/C1=C/c1ccc(Sc2ccc(Cl)cc2)o1 | 1% | 2% | -0.1% | 11% | 4%

# Molecules listed so far that have a halogen, in the order listed:
canonical_smiles | AID2073 | GPR55 antagonists | GPR55 beta-arrestin | Rac1 GTP hydrolysis | GPR35 antagonists
CNCC[C@@H](Oc1ccc(C(F)(F)F)cc1)c1ccccc1 | / | / | / | 4% | /
CC(C)n1c(/C=C/[C@@H](O)C[C@@H](O)CC(=O)O)c(-c2ccc(F)cc2)c2ccccc21 | 3% | 1% | 0.3% | 4% | 2%
Nc1c(Br)cc(Br)cc1CNC1CCC(O)CC1 (stereo unspecified) | 0% | -8% | -0.1% | 1%&2% | -3%
OCCN1CCN(CCCN2c3ccccc3Sc3ccc(C(F)(F)F)cc32)CC1 | 8% | 10% | -0.2% | 4% | -5%
O=C(NCCCN=C1NS(=O)(=O)c2ccccc21)c1ccc(F)cc1 | 17% | 15% | -0.1% | 6% | -4%
CN1CCN(CCCN2c3ccccc3Sc3ccc(Cl)cc32)CC1 | -16%&-20% | 12%&-7% | -0.1%&-0.1% | 80µM* | 13%&-8%
O=C1NN(c2ccccc2)C(=O)/C1=C/c1ccc(Sc2ccc(Cl)cc2)o1 | 1% | 2% | -0.1% | 11% | 4%
